Bioassay records from PubChem BioAssay.
KCNQ2 pot: KCNQ2 (rat) channel potentiation; CHO-K1 KCNQ2, FluxOR thallium flux fluorescence; active compounds read high; B-score at 10 µM; actives 0.54% (n = 310,000); AID 2239;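 active = fluorescence ratio B-score at least 3 SD of library B-scores, with initial fluorescence B-score within 3 SD, cut at about 5.3 in these data; same plate scores as AID 2156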;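 also: B-score of peak minus minimum over baseline fluorescence ratio after K+ and Tl+ stimulus; positive B-score means potentiation of KCNQ2 with more thallium influx and brighter signal; only the inactives scoring about 0 or higher are listed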
Target sequence (O88943 whole entry, looked up): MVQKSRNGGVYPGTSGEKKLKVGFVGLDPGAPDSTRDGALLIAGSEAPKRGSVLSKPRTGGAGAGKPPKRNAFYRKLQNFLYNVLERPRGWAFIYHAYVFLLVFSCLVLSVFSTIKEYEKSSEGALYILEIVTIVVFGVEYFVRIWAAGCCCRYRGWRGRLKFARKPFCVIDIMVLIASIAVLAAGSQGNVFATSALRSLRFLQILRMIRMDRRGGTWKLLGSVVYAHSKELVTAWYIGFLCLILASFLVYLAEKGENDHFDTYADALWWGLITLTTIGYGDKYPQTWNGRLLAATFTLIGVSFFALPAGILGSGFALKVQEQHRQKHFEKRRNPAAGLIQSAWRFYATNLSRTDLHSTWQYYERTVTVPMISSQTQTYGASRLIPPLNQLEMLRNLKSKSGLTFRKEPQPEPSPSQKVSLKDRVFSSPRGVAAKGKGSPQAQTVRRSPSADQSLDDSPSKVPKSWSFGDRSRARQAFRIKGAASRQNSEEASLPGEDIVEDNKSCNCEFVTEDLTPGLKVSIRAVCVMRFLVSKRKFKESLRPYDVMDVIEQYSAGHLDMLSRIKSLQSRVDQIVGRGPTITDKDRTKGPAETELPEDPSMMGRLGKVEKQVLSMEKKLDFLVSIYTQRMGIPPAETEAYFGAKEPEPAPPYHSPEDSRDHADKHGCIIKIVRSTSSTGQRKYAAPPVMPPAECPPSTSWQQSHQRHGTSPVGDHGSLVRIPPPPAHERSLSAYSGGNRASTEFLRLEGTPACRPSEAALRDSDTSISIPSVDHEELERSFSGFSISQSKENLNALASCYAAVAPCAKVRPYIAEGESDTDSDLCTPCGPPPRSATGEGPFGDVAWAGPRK
KCNQ2 pot baseline: further read-out of KCNQ2 pot, marked with its call; B-score; compound at 10 µM; measured here: initial fluorescence intensity artifact check;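 brightness before thallium and not channel activity; 0 = typical well and far values either way flag optical interference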
The depositor's hits bear a star. This is a subset (hit frequency here may not be typical).

SMILES	KCNQ2 pot	KCNQ2 pot baseline
COc1cc2[nH]c(C(=O)N(C)C3CCS(=O)(=O)C3)cc2c(OC)c1OC (stereo not given)	1.8	0.36
C[C@H](Nc1ccc(C(F)(F)F)cc1[N+](=O)[O-])C(=O)O	0.29	0.27
COc1ccc(N/C=C/C(=O)c2cc(OC)c(OC)c(OC)c2)cc1	0.16	-1.5
CCN(CC)C(=O)C1CCCN(C(=O)Nc2ccccc2)C1 (stereo not given)	1.1	-3
COc1ccc(NC(=O)C2CCN(S(=O)(=O)c3ccc(OC)c(OC)c3)CC2)c(OC)c1	0.18	0.87
O=C(Cn1cccc1C(=O)c1ccccc1)NCCc1ccccc1	1.9	2.4
Cc1ccc(S(=O)(=O)CCSc2cccc(C(=O)Nc3ccccc3C(=O)O)c2)cc1	0.02	-0.15
CCc1ccccc1N1C(=O)C2CC(C)=C(C)CC2C1=O (stereo not given)	0.58	-0.74
CC(=O)c1ccc(NC2=C(N3CCOCC3)C(=O)c3ccccc3C2=O)cc1	2	0.05
Cc1cc(C)nc(SCC(=O)Nc2cc(C)on2)n1	0.48	-0.56
CN(C)S(=O)(=O)c1ccc(Cl)c(NC(=O)COC(=O)C2CSC3(C)CCC(=O)N23)c1 (stereo not given)	1.4	-0.24
CCn1c(-c2csc(-c3ccc(Cl)cc3)n2)n[nH]c1=S	0.01	-0.32

Quoted at random: 7 records from the list, in no set order.
SMILES	KCNQ2 pot	KCNQ2 pot baseline
COc1cc2[nH]c(C(=O)N(C)C3CCS(=O)(=O)C3)cc2c(OC)c1OC (stereo not given)	1.8	0.36
O=C(Cn1cccc1C(=O)c1ccccc1)NCCc1ccccc1	1.9	2.4
C[C@H](Nc1ccc(C(F)(F)F)cc1[N+](=O)[O-])C(=O)O	0.29	0.27
CCN(CC)C(=O)C1CCCN(C(=O)Nc2ccccc2)C1 (stereo not given)	1.1	-3
Cc1cc(C)nc(SCC(=O)Nc2cc(C)on2)n1	0.48	-0.56
COc1ccc(NC(=O)C2CCN(S(=O)(=O)c3ccc(OC)c(OC)c3)CC2)c(OC)c1	0.18	0.87
CCn1c(-c2csc(-c3ccc(Cl)cc3)n2)n[nH]c1=S	0.01	-0.32

Further entries follow:
SMILES	KCNQ2 pot	KCNQ2 pot baseline
Cc1c(NC(=O)CN2C(=O)NC3(CCC(C)CC3)C2=O)c(=O)n(-c2ccccc2)n1C (stereo not given)	0.78	1.7
CCOC(=O)N1CCN(S(=O)(=O)c2ccc(OC)c(Br)c2)CC1	0.35	0.9
CC1(C)Cc2c(c(-c3ccco3)nc3sc4c(NCCCO)ncnc4c23)CO1	1.9	-0.67
O=C(CN1C(=O)C2CCCN2C(=O)c2ccccc21)Nc1ccccc1-n1cccc1 (stereo not given)	1.5	-1.1
C/C(=C\C(=O)c1cccnc1)Nc1ccc(C(=O)O)cc1	0.46	0.11
CC1CCc2c(sc3ncn(CC(=O)N4CCCCC4)c(=O)c23)C1 (stereo not given)	1.2	-1.1
CCN=C1S/C(=C/c2ccc(-c3ccc(Cl)cc3C(=O)O)o2)C(=O)N1CC	1.4	-0.46
COC(=O)c1ccc(C(=O)OC)c(NC(=S)N2CCC(C)CC2)c1	0.67	-0.4
COc1cc(C(=O)N/N=C(\C)c2ccc(NC(=O)Cc3ccccc3)cc2)ccc1O	1.3	2.7
CCOC(=O)C1C(=O)Nc2nc(C)nn2C1c1ccccc1 (stereo not given)	1.5	-1
S=C1NC[C@H](Cc2cccc3ccccc23)N1CC1CCCCC1	0.22	0.02
Cc1ccc(NC(=O)N2CCN(C)CC2)cc1NC(=O)N1CCN(C)CC1	1.2	0.95

As a working copy, part of the list above.
SMILES	KCNQ2 pot	KCNQ2 pot baseline
Cc1c(NC(=O)CN2C(=O)NC3(CCC(C)CC3)C2=O)c(=O)n(-c2ccccc2)n1C (stereo not given)	0.78	1.7
CCOC(=O)N1CCN(S(=O)(=O)c2ccc(OC)c(Br)c2)CC1	0.35	0.9

(next part)
SMILES	KCNQ2 pot	KCNQ2 pot baseline
COc1ccc(/C=N/NC(=O)C2C3CCCCC32C)cc1OC (stereo not given)	0.46	1
C(=N/N1CCN(c2ccccc2)CC1)/c1ccncc1	0.52	-1.8
CC(OC(=O)c1cccc(-n2cnnn2)c1)C(=O)c1ccccc1 (stereo not given)	2.6	0.01
Cc1ccc(Oc2ccccc2NC(=O)CSCC(=O)Nc2cc(C)on2)cc1	0.05	-0.02
C[N+]1(C)CC[C@H](OC(=O)[C@@](O)(c2ccccc2)C2CCCC2)C1	2	0.27
Cc1cccc(C(C)C)c1NC(=O)COC(=O)C1CC(=O)N(Cc2ccccc2)C1 (stereo not given)	0.01	-0.42
Cc1ccc(OCC(=O)N/N=C\c2ccc(O)c([N+](=O)[O-])c2)c([N+](=O)[O-])c1	1.2	-0.57
COc1ccc(C2CC(C(F)(F)F)n3nc(C(=O)NCCN4CCOCC4)cc3N2)cc1 (stereo not given)	1.1	1.1
COc1cc(-c2[nH]ncc2CN2CCCC2c2nonc2C)cc(OC)c1OC (stereo not given)	1.1	0.82
COc1ccc(C(C#N)N2N=C(C)CC2(C)C)cc1 (stereo not given)	0.07	1.6
COc1ccccc1N1CCN(C(C)C(=O)N2CC(C)OC(C)C2)CC1 (stereo not given)	0.29	0.37
c1coc(CNc2nc(-c3ccncc3)cs2)c1	0.68	-0.03
CCCOc1ccc(/C=N/NC(=O)C(C)Sc2ccccn2)cc1OCC (stereo not given)	1.9	-0.61
N#CC(C#N)=C(Nc1ccc(F)cc1)SCc1cccc(F)c1	0.89	0.32
Cc1ccc(NC(=O)O/N=C/c2c(C)nn(C(C)(C)C)c2C)cc1Cl	0.57	-0.8
O=C(O)/C=C/c1ccc(S(=O)(=O)NCc2cccnc2)cc1	1.9	-0.6
O=C(O)CC(c1ccccc1)N1C(=O)c2cccc([N+](=O)[O-])c2C1=O (stereo not given)	0.89	-0.01
CC(C)C(=O)Nc1nnc(SCC(=O)NCC2CCCO2)s1 (stereo not given)	1.1	-0.99
COc1ccc2nc(NC(=O)CSc3n[nH]c(N)n3)sc2c1	1.5	-1.2
Cc1ccc(CN2CCN(/N=C/c3ccc(C)s3)CC2)cc1	0.12	-0.35
COC(=O)c1ccc(NC(=O)C2CCCN2S(=O)(=O)c2ccc(OC)cc2)cc1 (stereo not given)	0.1	-0.55
C[C@@H](NC(=O)c1nc[nH]c1C(=O)N[C@@H](Cc1ccccc1)C(=O)OCc1ccccc1)c1ccccc1	0.09	0.42
CCOC(=O)c1cc2c(=O)n3cccc(C)c3nc2n(CCOC)c1=NC(C)=O	0.36	0.38
CCc1cc2ccccc2nc1SCC(=O)N1CCN(C(=O)c2ccco2)CC1	0.01	-0.81
CN(Cc1ccccc1)C(=O)COC(=O)C1CCN(S(=O)(=O)c2cccs2)CC1	1.4	0.08
Cc1c(C(=O)N2CCCCC2)nn(-c2ccc(Cl)cc2)c(=O)c1C#N	0.73	1.1
COc1ccc(-c2cnnc(N/N=C/c3ccc(O)cc3)n2)cc1	1.2	1.7
CC(=O)Nc1nc(NCc2ccccc2Cl)n(-c2ccccc2)n1	0.46	-0.39
CC(=O)Nc1ccc(S(=O)(=O)NNC(=O)c2ccc(C)cc2)cc1	0.6	-1.3
COc1ccc(C(=O)NNC(=O)C(=O)NC2CCCCC2)cc1	2.1	-1.5
CNC(=O)C(=O)Nc1c(C)cc(C)cc1C	0.32	-1.1
CCCCN(C(=O)c1ccc2c(c1)OCCO2)c1c(N)n(CCCC)c(=O)[nH]c1=O	0.01	-1.3
CCc1cc2cc(C)c(C)cc2nc1SCC(=O)NNC(=O)c1ccco1	0.45	-0.22
O=C(NCCc1ccccc1)C1=CCN(S(=O)(=O)c2ccccc2)CC1	0.01	0.74
CC(C)C(NC(=O)c1ccccc1F)C(=O)NCCc1ccccn1 (stereo not given)	1.2	0.22
COc1ccc(/C=N/NC(=O)c2c(C)nnn2-c2nonc2N)cc1OC	0.08	0.92
COC(CNC(=O)c1cc(-c2ccncc2)nc2ccc(S(=O)(=O)N3CCOCC3)cc12)OC	0.22	1.1
O=C(O)c1ccc(NC(=O)c2cn(-c3ccccc3)nc2-c2ccccc2)cc1	0.27	-0.3
CSc1ccc(CCNC(=O)c2ccc(CS(=O)Cc3ccc(Cl)cc3)o2)cc1 (stereo not given)	0.29	-0.47
COc1ccccc1N1CCN(C(=O)Cc2c(C(=O)O)[nH]c3ccc(Cl)cc23)CC1	0.48	-1.6
C=CCNc1nnc(SCC(=O)N2CCCCC2)c2ccccc12	0.66	0.22
Cc1ccc(NS(=O)(=O)c2cccc(C(=O)NCCCN3CCOCC3)c2)cc1	0.01	-0.94
O=C(c1ccco1)c1cn(CC(=O)N2CCCCC2)c2ccccc12	0.26	1.1
O=C(Nc1ccccc1)C1CC2CCC1C2 (stereo not given)	3.5	1.7
Cc1ccc(C2NC(=O)c3ccccc3O2)cc1 (stereo not given)	0.29	1
Cc1[nH][nH]c(=O)c1N=Nc1ccccc1C#N	0.01	0.01
O=c1cc(NC2CCCCC2)c2ccccc2o1	0.4	0.73
O=C(c1ccncc1)N1CCN(S(=O)(=O)c2cc(C(F)(F)F)cc(C(F)(F)F)c2)CC1	2.7	1.1
Cc1ccc(CN2CCNC(=O)C2CC(=O)N(C)CCc2cnn(C)c2)cc1 (stereo not given)	0.83	-0.22
CCOc1ccccc1NC(=O)NCc1ccc(F)cc1	2.1	-1.4
O=C(CN1C(=O)c2ccccc2S1(=O)=O)NC1CCCC1	1.1	-0.15
COc1ccc(C(=O)COC(=O)c2ccc3c(c2)NC(=O)CS3)c(OC)c1	1.2	-1.8
CCC(=O)Nc1ccc2nc(C)n(CC(=O)Nc3ccccc3)c(=O)c2c1	0.17	-0.73
CC(C)NC(=O)c1cnc(Sc2ncc(C(F)(F)F)cc2Cl)n1C	0.6	0.22
CC(=O)c1cccc(NC(=O)COc2cc3oc(=O)c(CC(C)O)c(C)c3cc2Cl)c1 (stereo not given)	0.09	-2.6
COC(=O)CNC(=O)COC(=O)c1cc(F)c(F)cc1Cl	1.4	-0.01
Cc1nn(-c2ccccn2)c(N)c1N=O	0.64	-2
CCN(CC)c1ccc(NC(=O)CSc2nc3ccccc3c(=O)[nH]2)cc1	0.06	-1
N#CC1=C(SCC(=O)Nc2nccs2)NC(=O)CC1c1ccccc1 (stereo not given)	2.8	-0.87
Cc1ccc(NCc2ccccc2O)c(C)c1	2.3	0.61

Following part
SMILES	KCNQ2 pot	KCNQ2 pot baseline
CCOC(=O)CCN(c1ccccc1)S(=O)(=O)c1ccc(-c2ccc(=O)[nH]n2)s1	1.2	-0.03
O=C1SC(SCc2ccccc2)=N/C1=C\c1ccco1	0.02	0.88
CCCCc1ccc(NC(=O)Nc2cc(C)nn2C)cc1	0.11	-0.02
Cn1c(N)c(C(=O)CSc2nc3ccccc3c(=O)n2CCCN2CCOCC2)c(=O)n(C)c1=O	2	-0.66
CCCC(=O)N(Cc1cc(=O)[nH]c2ccccc12)c1ccc(C)cc1	1.2	-1
COc1ccc(Cl)cc1S(=O)(=O)N1CCCC(C(=O)NCc2ccccn2)C1 (stereo not given)	0.3	-0.44
CC(Sc1nnnn1-c1ccccc1)C(=O)Nc1ccc(N2CCN(C)CC2)cc1 (stereo not given)	1.7	-0.45
Cc1nc(-c2cccc(C(F)(F)F)c2)sc1C(=O)O	2	-2.4
CCOc1cc(N2CCOCC2)c(OCC)cc1NC(=O)C(NC(=O)c1ccco1)C(C)C (stereo not given)	0.21	0.14
CCOc1ccc(C(C(=O)NCC2CCCO2)N(Cc2cccnc2)C(=O)c2snc(C(N)=O)c2N)cc1 (stereo not given)	1	2
CCOc1cc(/C=C2/C(=N)N3C(=NC2=O)SN=C3S(=O)(=O)CC)ccc1OC(=O)c1ccco1	0.23	0.85
Cc1ccc2c(Cl)c(C)c(N3CCCC3)nc2n1	0.08	-1.9
Cc1cccc(Cn2c(-c3ccc[nH]c3=O)nc3ccccc32)c1	0.12	-0.52
CC(NC(=O)C1CC1)c1ccc(-c2ccccc2)cc1 (stereo not given)	0.04	1.3
CCN=C1SC(C(N)=O)CC(=O)N1CC (stereo not given)	0.06	-0.48
Cn1ncc(Br)c1NC(=O)Nc1ccc(OC(F)(F)F)cc1	1.3	-2
Cc1cccc(N2CCN(C(=O)NC3CCCCC3)CC2C)c1 (stereo not given)	0.67	0
O=C(Nc1ccc(N2CCCCC2)c(C(=O)O)c1)c1ccco1	1.2	0.11
Nc1scc(-c2ccncc2)c1Cl	0.46	-0.21
CCc1n[nH]c(=S)n1/N=C/c1ccc(NC(C)=O)cc1	0.6	2.7
COc1ccc(C2CC(c3cccc(C)c3)n3ncnc3N2)cc1 (stereo not given)	0.11	0.61
COc1ccc(-n2cnc3cc(NS(=O)(=O)c4ccccc4)ccc32)cc1	0.06	0.01
Cc1ccc(S(=O)(=O)NC(=O)Nc2ccc(OC(F)F)cc2)cc1	0.95	-0.3
CC1CCN(S(=O)(=O)N2CCC(C(=O)NC3CCCC3)CC2)CC1	0.76	-0.62
CCCCOc1ccc(C(=O)N2CCCC2)cc1	0.8	-0.09
O=C(NC(=S)NC1CCCC1)c1ccccc1Br	1.9	0.13
CCCN(CCC)c1nc(Cl)nc(NCCN2CCOCC2)n1	0.01	1.2
O=C(CN1CCOCC1)Nc1ccccc1Cl	0.77	-1.4
O=[N+]([O-])c1ccc(/C=N/n2c(-c3cccnc3)n[nH]c2=S)cc1	1.3	0.28
CCCCOC(=O)c1ccc(NC(=O)/C=C/c2cccs2)cc1	0.74	-0.58

Structures from the list above with a CF3 group:
SMILES	KCNQ2 pot	KCNQ2 pot baseline
C[C@H](Nc1ccc(C(F)(F)F)cc1[N+](=O)[O-])C(=O)O	0.29	0.27
COc1ccc(C2CC(C(F)(F)F)n3nc(C(=O)NCCN4CCOCC4)cc3N2)cc1 (stereo not given)	1.1	1.1
O=C(c1ccncc1)N1CCN(S(=O)(=O)c2cc(C(F)(F)F)cc(C(F)(F)F)c2)CC1	2.7	1.1
CC(C)NC(=O)c1cnc(Sc2ncc(C(F)(F)F)cc2Cl)n1C	0.6	0.22
Cc1nc(-c2cccc(C(F)(F)F)c2)sc1C(=O)O	2	-2.4
Cn1ncc(Br)c1NC(=O)Nc1ccc(OC(F)(F)F)cc1	1.3	-2
